Assay outcomes deposited in PubChem BioAssay by several laboratories.
B2AR ag = activates human beta-2 adrenergic receptor causing internalization | hit rate 0.43% among 340,000 | Am2.2-beta2AR cells, FAP receptor internalization, flow cytometry; reference of the scale not given here | response, % (concentration not given with the values) | P07550 | AID 504454;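 active means response above a set limit, near 3 SD of response in nonfluorescent compounds, cut at about 42% in these data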;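 further: stock transfer was 100 nL into about 11 µL; a reference agonist was the positive control; negative values mostly stem from fluorescent compounds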
UCH37 DUB inh = inhibitors of human deubiquitinating enzyme UCH37 | inhibition, % (no concentration beside the values) | purified proteasome/UCH37, Ub-AMC cleavage fluorescence | AID 588478 | hit rate 0.33% among 330,000;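 active means mean of two replicates above 20%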;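 further: 0% = compound-free wells with enzyme and 100% = wells lacking proteasome; stock transfer was 100 nL into about 20 µL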
Target sequence (Q9Y5K5 whole entry, looked up): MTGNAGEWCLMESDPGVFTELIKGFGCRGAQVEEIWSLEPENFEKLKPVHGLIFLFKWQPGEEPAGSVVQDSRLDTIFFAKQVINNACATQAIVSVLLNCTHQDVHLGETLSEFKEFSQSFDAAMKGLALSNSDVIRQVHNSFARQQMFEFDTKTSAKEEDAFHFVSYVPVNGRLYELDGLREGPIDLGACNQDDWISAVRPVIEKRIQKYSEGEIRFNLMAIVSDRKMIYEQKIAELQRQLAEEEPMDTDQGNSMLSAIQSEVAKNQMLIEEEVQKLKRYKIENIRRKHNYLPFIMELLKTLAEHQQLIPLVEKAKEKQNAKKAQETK
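System: Proteasome-associated human UCH37 deubiquitinase; Input: 0.15 nM proteasome in added enzyme buffer; Also added: Ub-AMC substrate from 1 µM stock; Incubation: 30 min compound-proteasome preincubation then 25 min substrate reaction, room temperature; Detection: fluorescence, ex 355 nm, em 460 nm; Read-out: % inhibition of Ub-AMC cleavage fluorescence; Benchmarks: no-proteasome and no-compound wells.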
Ecoli growth = inhibitors of Escherichia coli growth; OD600, 23 h; hits give low values; OD600 absorbance (no concentration beside the values); hit rate 0.21% among 330,000;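 active means OD600 absorbance below the run mean of sample wells minus 3.6 SD, in any replicate, cut at about 0.56 in these data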;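 further: stock transfer was 300 nL into about 60 µL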
FGF22 binding = FGF22 (human) thermal shift binding | Q9HCT0 | recombinant FGF22 thermal shift, SYPRO orange fluorescence; percent of sucrose octasulfate shift, DMSO zero | hit rate 1.5% among 340,000 | calls only at 9.99 µM | AID 651658;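 active means melting point raised past a set limit in the mean and every replicate; three in four hits are not shown here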
HNF4A DNA FP = change in binding of human HNF4 alpha to DNA; HNF4a-FITC DNA binding, fluorescence polarization, 1 h; AID 1224865; P41235; activity change, % at 10 µM; hit rate 0.3% among 360,000; in the data active means activity change above about 30%, passing the limit was not always enough;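 further: controls were the assay level and a saturating level of protein; the project sought stronger binding though the title names inhibitors; some compounds called inactive have numbers as strong as hits; positive values seem to mean higher polarization but the record does not say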
Target sequence (P41235 whole entry, looked up): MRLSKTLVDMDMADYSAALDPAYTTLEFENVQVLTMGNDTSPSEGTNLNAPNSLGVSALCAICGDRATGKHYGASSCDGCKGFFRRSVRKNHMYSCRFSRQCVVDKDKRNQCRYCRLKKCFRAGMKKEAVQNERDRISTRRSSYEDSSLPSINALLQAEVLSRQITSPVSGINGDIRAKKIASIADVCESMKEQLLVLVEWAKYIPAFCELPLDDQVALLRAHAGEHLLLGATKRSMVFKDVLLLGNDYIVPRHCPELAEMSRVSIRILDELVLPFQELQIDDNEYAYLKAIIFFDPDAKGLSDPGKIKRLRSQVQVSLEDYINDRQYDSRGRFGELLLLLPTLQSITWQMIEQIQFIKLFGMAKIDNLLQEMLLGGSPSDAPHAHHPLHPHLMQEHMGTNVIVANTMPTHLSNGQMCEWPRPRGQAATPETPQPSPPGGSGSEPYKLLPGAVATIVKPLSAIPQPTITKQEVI
LANA-H2B inh = blocks KSHV LANA binding to histone H2A/H2B. cell-free LANA-H2A/H2B peptide, fluorescence polarization. inhibition, % (no concentration beside the values). hit rate 0.6% among 320,000; in the data active means inhibition mostly above about 10%, no sharp cut-off; inactive means mostly below about 6.7%;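 further: stock transfer was 7.5 nL into about 10 µL; 0% = median of vehicle wells and 100% = median of positive control wells; one replicate is shown; the record names a cut of 25% in any replicate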
ALR inh = blocks human ALR sulfhydryl oxidase activity; inhibition, % (concentration not given with the values); AID 485317; purified ALR, DTT oxidation, H2O2 HRP-luminol luminescence; P55789; hit rate 3.8% among 290,000;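 active means mean and each replicate at 75% or more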;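 further: stock transfer was 7.5 nL into about 7.5 µL; 0% = neutral wells and 100% = wells with inactivated enzyme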
Target sequence (P55789 whole entry, looked up): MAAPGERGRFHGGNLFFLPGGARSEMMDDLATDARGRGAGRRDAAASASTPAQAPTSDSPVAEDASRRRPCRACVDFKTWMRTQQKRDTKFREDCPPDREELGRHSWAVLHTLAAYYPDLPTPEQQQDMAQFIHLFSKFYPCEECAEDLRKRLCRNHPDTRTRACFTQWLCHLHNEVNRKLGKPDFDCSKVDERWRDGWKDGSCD
* = called active by the depositor; i = inactive; nt = no result given.

Below each SMILES: B2AR ag | UCH37 DUB inh | Ecoli growth | FGF22 binding | HNF4A DNA FP | LANA-H2B inh | ALR inh
(1) NC(=O)N1OCC2COc3ccc4ccccc4c3C21 (stereo unspecified)
→ 0 | 0.3 | 0.72 | nt | -1.5 | 1.3 | -8
(2) Cc1cccc(OCC(=O)NC(Cc2ccccc2)C(=O)O)c1 (stereo unspecified)
→ -7 | 1.4 | 0.66 | nt | -4.1 | 2.2 | -3
(3) Cc1nonc1C(=O)N1CCCC(N2CCN(c3ccc(F)cc3)CC2)C1 (stereo unspecified)
→ 2 | 1.2 | 0.71 | i | -0.8 | -3.2 | 98*
(4) COc1ccc(-n2nc(C(=O)NCC(=O)N3CCN(c4ccccc4)CC3)c3ccccc3c2=O)c(OC)c1
→ 5 | 0.2 | 0.7 | i | -2.8 | 0.8 | 6
(5) COc1cccc(S(=O)(=O)NCc2ccc(C(=O)Nc3ccc(Cl)c(Cl)c3)cc2)c1
→ 8 | 3.4 | 0.81 | nt | -0.6 | -4.6 | -6
(6) O=C(CSc1nnc(-c2ccco2)o1)N1CCOCC1
→ -3 | 5.3 | 0.68 | nt | -1.1 | 2.8 | -3
(7) COCCn1c(SCC(=O)NC(=O)Cc2ccccc2)nc2ccccc2c1=O
→ -1 | 5.1 | 0.71 | i | 0.0 | 1.7 | 2
(8) CN(C)c1ccnc(Nc2ccc(F)cc2)c1C#N
→ 9 | -0.2 | 0.73 | i | 3.3 | 3.6 | -1
(9) O=C(O)Cc1ccc(NC(=O)c2ccc(NC(=O)C3CC3)cc2)cc1
→ 6 | 0.6 | 0.65 | i | 1.0 | 1.4 | -13
(10) Cc1cccn2cc(-c3cccc(S(=O)(=O)N4CCOCC4)c3)nc12
→ -3 | -1.8 | 0.69 | i | 4.7 | -1.9 | 96*
(11) O=C1CC(N(O)c2ccccc2)C(=O)N1Cc1ccccc1 (stereo unspecified)
→ -4 | 3.4 | 0.67 | nt | -1.9 | 5.0 | 36
(12) COc1ccccc1-c1cn(S(=O)(=O)c2ccc(C)cc2)nc1N
→ 6 | 2.1 | 0.7 | nt | 2.7 | -6.0 | -40
(13) CCc1ccc(CN2C(=O)c3ccccc3C2C(=O)NC(C)CC)cc1 (stereo unspecified)
→ -6 | 1.4 | 0.62 | i | -1.5 | -3.2 | 9
(14) CCOc1ccc(OCc2nnc(SCC(=O)NC3CCS(=O)(=O)C3)n2-c2ccc(Cl)cc2)cc1 (stereo unspecified)
→ -5 | 2.5 | 0.65 | i | -3.0 | 1.3 | -6
(15) CC[C@]12c3[nH]c4ccc(OC)cc4c3CCN1C(=O)C(CC(=O)NCCCn1ccnc1)C[C@@H]2C(=O)N1CCN(C(=O)c2ccco2)CC1 (stereo partly specified)
→ -4 | -0.9 | 0.67 | i | -0.3 | nt | nt
(16) Cc1ccc(-n2c(O)c(C=NCc3ccccn3)c3ccccc3c2=O)cc1C
→ -9 | 6.2 | 0.71 | i | 7.7 | -12 | -2
(17) O=C(NCc1ccccc1)c1ccc(N2CCC3(CC2)CC(c2ccccc2)=NO3)c([N+](=O)[O-])c1
→ -17 | 47* | 0.72 | i | 0.4 | 3.4 | 0
(18) CC(NS(=O)(=O)c1cccc(Cl)c1)C(=O)N(C)C1CCN(C)CC1 (stereo unspecified)
→ -3 | nt | nt | i | -0.8 | 0.4 | -19
(19) CC1=C(C(=O)c2ccccc2)C(c2ccc(O)cc2)NC(=S)N1 (stereo unspecified)
→ -10 | 9.3 | 0.7 | i | -3.2 | -3.3 | 6
(20) C=CCOc1ccccc1CNCCNC(=O)c1nonc1N
→ 3 | 0.0 | 0.72 | i | -1.4 | 2.8 | -1
(21) O=c1cc(-c2ccco2)nc(-c2cccs2)o1
→ 4 | 43* | 0.63 | nt | 2.9 | -5.2 | 16
(22) C/C(=C1/SC(N2CCOCC2)=NC1=O)c1ccc(Br)cc1
→ -2 | 0.9 | 0.76 | nt | -4.9 | -2.1 | -3
(23) Cc1nc(C(=O)N2CCCC(C(=O)c3ccc(Cl)cc3)C2)cs1 (stereo unspecified)
→ -7 | 1.9 | 0.71 | i | -1.4 | -0.4 | -3
(24) CCOc1cc(CNc2ncnc3nc[nH]c23)ccc1OC
→ 7 | 4.1 | 0.74 | i | 2.5 | 0.8 | -9
(25) O=C(NCc1cccnc1)c1cc2nc(-c3cccs3)cc(C(F)(F)Cl)n2n1
→ 31 | 2.3 | 0.68 | nt | 0.8 | 0.4 | 2
(26) COc1ccccc1Nc1nc(N)nc(-c2oc3ccccc3c2C)n1
→ -5 | -69 | 0.79 | nt | -0.9 | 1.8 | -3
(27) O=C(O)c1cccc(CSc2ncccn2)c1
→ -1 | 2.7 | 0.67 | nt | -0.3 | -0.2 | -2
(28) Cc1ccc(-c2nc(CS(=O)(=O)CC(=O)NCCN3CCOCC3)c(C)o2)cc1
→ 3 | 4.2 | 0.66 | i | 4.9 | -2.0 | -3
(29) Cc1c(NC(=O)c2ccc(=O)oc2)c(=O)n(-c2ccccc2)n1C
→ -7 | 2.2 | 0.7 | nt | 0.3 | -5.0 | 88*
(30) Cc1ccc(C(=O)N/N=C\c2ccc[nH]2)cn1
→ 4 | nt | nt | nt | -0.8 | -3.8 | -1
(31) CCOc1ccc2nc(NC(=O)Cn3cnc4c3c(=O)n(C)c(=O)n4C)sc2c1
→ 2 | -0.5 | 0.68 | nt | -3.1 | 1.8 | nt
(32) O=C(Cn1ncc2c(=O)oc3ccccc3c21)NCCc1ccsc1
→ -1 | 1.6 | 0.7 | i | 1.3 | 1.2 | -3
(33) c1ccc(COc2cccc(CNn3cnnc3)c2)cc1
→ -1 | 1.7 | 0.65 | i | 1.2 | 4.7 | -8
(34) O=C(NC1CCCC1)C(c1ccsc1)N(Cc1ccco1)C(=O)Cc1cccs1 (stereo unspecified)
→ 2 | 2.2 | 0.8 | nt | -1.8 | 5.8 | -3
(35) Cc1occc1C(=O)N/N=C/c1cccs1
→ -8 | nt | nt | i | -1.1 | -1.4 | -1
(36) Cc1cc(N)n(Cc2ccc(Cl)cc2)n1
→ -10 | 0.5 | 0.68 | i | -1.6 | -3.2 | -4
(37) COc1ccc(CN(C)C(=O)CC(c2ccccc2)c2ccccc2)cc1
→ 20 | 1.0 | 0.69 | i | -0.9 | 3.0 | nt
(38) CC(C)C(NC(=O)c1cccc(S(=O)(=O)N2CCOCC2)c1)C(=O)NCc1ccc(Cl)cc1 (stereo unspecified)
→ 9 | 2.1 | 0.68 | i | -2.9 | nt | nt
(39) CC(=O)C1=C(O)C(=O)N(c2ccc(S(N)(=O)=O)cc2)C1c1ccccc1F (stereo unspecified)
→ 6 | -11 | 0.7 | nt | 0.1 | 7.0 | 0
(40) O=C(Cn1nnc(-c2cccc(C(F)(F)F)c2)n1)N1CCOCC1
→ 1 | 0.3 | 0.71 | i | -1.5 | nt | nt
(41) O=S(=O)(NC1CC2CCC1C2)c1ccc2c(c1)OCCO2 (stereo unspecified)
→ -7 | -1.3 | 0.68 | nt | 5.1 | 20* | 0
(42) CC(C)(C)OC(=O)[C@H](CCCCN)NC(=O)c1nc[nH]c1C(=O)NCCCCCN
→ 10 | -0.1 | nt | i | 1.9 | 4.3 | nt
(43) O=C(COC(=O)/C=C/c1ccc2c(c1)OCO2)NCc1ccccc1
→ -3 | -22 | 0.67 | i | 1.9 | -2.1 | -3
(44) COC(=O)c1ccccc1NC(=O)CN1CCCCCC1
→ 13 | -0.2 | 0.66 | i | -1.1 | 2.1 | 20
(45) NC(=O)CSc1nc2cc(S(=O)(=O)N3CCOCC3)ccc2o1
→ -2 | 1.0 | 0.67 | i | -1.1 | -0.6 | nt
(46) COc1ccc(/C(O)=C2/C(=O)C(=O)N(Cc3cccnc3)C2c2ccncc2)cc1F (stereo unspecified)
→ -6 | 11 | 0.71 | nt | -1.2 | 0.7 | 2
(47) COc1ccccc1NC(=O)CSC(N)=O
→ -2 | 6.6 | 0.69 | nt | 0.3 | 3.0 | 99*
(48) Cc1ccc(-c2c(C#N)c(N)nc3c2CCCC3)s1
→ 7 | -89 | 0.77 | nt | 0.8 | -3.4 | -9
(49) Cc1ccc(CONC(=O)c2ccc(Cl)cc2)cc1
→ 5 | 1.9 | 0.69 | i | -2.0 | -0.7 | nt
(50) CCN1/C(=C2/SC(=S)N(C)C2=O)C=Cc2cc(C)ccc21
→ -4 | 5.1 | 0.68 | i | 10 | 2.5 | -25
(51) CC(=O)NC1C(=O)N(CCN2CCOCC2)c2ccc(C)cc21 (stereo unspecified)
→ 3 | 14 | 0.67 | nt | 2.9 | -2.6 | -8
(52) NC(=O)c1ccsc1NC(=O)COC(=O)c1ccncc1
→ 2 | 4.8 | 0.71 | i | -4.0 | nt | nt
(53) O=C(Cc1ccc(Br)cc1)Nc1cccc(S(=O)(=O)N2CCOCC2)c1
→ 8 | 2.4 | 0.66 | i | -2.0 | -0.3 | 1
(54) CN1CCN(C(=O)/C(=C\c2cccc([N+](=O)[O-])c2)NC(=O)c2cccs2)CC1
→ -5 | 0.7 | 0.71 | i | -0.9 | -2.5 | -1
(55) CN1CCc2c(sc(NC(=O)Cc3ccccc3)c2C#N)C1
→ 3 | 2.1 | 0.78 | i | 11 | -3.0 | nt
(56) Cc1ccc(C)c(S(=O)(=O)N2CCN(C(=O)CCc3nc4ccccc4c(=O)[nH]3)CC2)c1
→ 15 | 6.3 | 0.71 | i | -3.4 | -1.0 | -14
(57) C=CCCC(=O)Nc1nc(C)c(-c2csc(Nc3ccccc3OC)n2)s1
→ 22 | 0.3 | 0.7 | i | -0.2 | -2.5 | -7
(58) CCOc1ccc2[nH]c(C)c(CN3CCN(CC)CC3)c(=O)c2c1
→ -2 | -18 | 0.7 | nt | 5.0 | -0.9 | nt
(59) N#Cc1ncc(Cc2ccccc2)nc1C#N
→ 13 | 4.1 | 0.7 | i | 1.1 | -5.2 | nt
(60) Cc1ccc(S(=O)(=O)Oc2ccccc2N2C(=O)C3C4CCC(C4)C3C2=O)cc1 (stereo unspecified)
→ 11 | -15 | 0.65 | i | 1.6 | -4.0 | 5

(next part)
Below each SMILES: B2AR ag | UCH37 DUB inh | Ecoli growth | FGF22 binding | HNF4A DNA FP | LANA-H2B inh | ALR inh
(61) CCN1C(=O)CC(C(=O)O)SC1=Nc1ccc(OC)cc1 (stereo unspecified)
→ -10 | 1.1 | 0.72 | nt | 1.2 | -0.5 | -3
(62) CSc1nc(NS(=O)(=O)c2cc(Br)ccc2Br)cc(=O)[nH]1
→ -11 | 0.3 | 0.66 | i | -6.5 | 1.8 | 3
(63) COc1cc(CC(=O)Nc2cc(S(=O)(=O)N3CCOCC3)ccc2N2CCCC2)cc(OC)c1OC
→ -10 | 1.1 | 0.66 | i | -1.8 | nt | nt
(64) C=CCn1c(Cc2ccccc2)nnc1SCc1nc2ccccc2c(=O)[nH]1
→ 8 | 1.6 | 0.75 | i | -7.3 | 1.7 | 6
(65) Cn1cccc1Cc1nnc(SCC(N)=O)n1-c1ccc(F)cc1
→ 2 | -0.5 | 0.69 | i | 1.5 | 0.7 | 0
(66) Cc1c(Br)c([N+](=O)[O-])nn1CC(=O)NCc1ccccn1
→ 2 | 2.6 | 0.73 | nt | -7.9 | 0.7 | -6
(67) CCOC(=O)N1CCN(C(=O)Cc2ccccc2[N+](=O)[O-])CC1
→ 5 | 1.0 | 0.68 | i | 1.0 | -4.9 | -8
(68) O=C(Cn1c(=O)cnc2ccccc21)N1CCCc2ccccc21
→ 4 | 3.7 | 0.67 | i | 1.4 | 1.8 | 11

A portion of the library (hit frequency here may not be typical).
